Assay outcomes as filed in PubChem BioAssay.
miR-21 reporter: miR-21 reporter, rising signal | Potency, µM (top dose mostly 38.3 µM), for inactives: at the top dose reporter change, positive = more light | 340,000 tested, under 10 active | AID 2288 | HeLa miR-21 FLuc reporter, luciferase, 48 h; active = well fitted rising curve with a large enough effect; inconclusive = small, poorly fitted or top-dose-only effect; inactive = no such curve, though single readings can be large or run the other way;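 further: % of control where 0% means no effect; miR-21 action dims this reporter so a rising signal means less miR-21 action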
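HeLa cells endogenously expressing miR-21, stably carrying CMV-driven firefly luciferase with a downstream miR-21 binding site, 2000 cells/well. Titrations up to approximately 40 uM, 48 hours; luciferase luminescence read.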
Rango release inh: inhibitors of RanGTP-induced Rango-importin beta complex dissociation. O95149+P62826. Biochemical FRET Rango-importin beta, RanGTP-induced dissociation. Potency, µM (highest dose often 46.1 µM), for inactives: at the highest dose activity change, negative = inhibition. 340,000 compounds, 0.071% hits. AID 540253; active means falling FRET ratio curve, often poorly fitted, with flat reads before Ran was added; inconclusive means other falling curves, or compound fluorescence or quenching; inactive means flat or rising ratio curve;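 further: potency means the concentration at half of the fitted maximal effect; % of control where 0% means no effect; nearly all actives have a fitted effect of over 45% in size; -100% = wells without RanGTP and RCC1; the record marks most hits as doubtful in a second field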
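Rango (0.1 uM)–importin beta (0.25 uM) complex; RanGTP-RCC1 trigger; 45 min RT; CFP/YFP FRET read.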
GLA inh pH 4.5: blocks human alpha-galactosidase A at pH 4.5; P06280; purified enzyme, 4-MU-alpha-Gal fluorescence, pH 4.5; activity change, negative = inhibition, % at 105 µM; 230,000 tested, under 10 active; AID 1467; inconclusive = small, poorly fitted or top-dose-only inhibition, or a rising curve; inactive = flat fitted curve, though single readings scatter; no compound was filed as active;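 further: 0% = full activity with enzyme and -100% = basal without enzyme; dose as in the result columns while the protocol names 77 µM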
Rango complex inh: inhibitors of Rango-importin beta complex formation | Q14974 | Rango CFP/YFP FRET sensor + importin beta, 45 min | Potency, µM (series often up to 92.2 µM), for the others: top-dose inhibition of complex formation | 340,000 compounds, 0.031% hits | AID 540263; active = rising FRET ratio curve, often small or poorly fitted; inconclusive = mostly compound fluorescence or quenching in the first reads; inactive = flat curves in all reads;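 further: potency means the concentration at half of the fitted maximal effect; 0% = DMSO wells and 100% = buffer wells lacking importin beta; nearly all actives have a fitted effect of over 15% in size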
Target sequence (Q14974 whole entry, looked up): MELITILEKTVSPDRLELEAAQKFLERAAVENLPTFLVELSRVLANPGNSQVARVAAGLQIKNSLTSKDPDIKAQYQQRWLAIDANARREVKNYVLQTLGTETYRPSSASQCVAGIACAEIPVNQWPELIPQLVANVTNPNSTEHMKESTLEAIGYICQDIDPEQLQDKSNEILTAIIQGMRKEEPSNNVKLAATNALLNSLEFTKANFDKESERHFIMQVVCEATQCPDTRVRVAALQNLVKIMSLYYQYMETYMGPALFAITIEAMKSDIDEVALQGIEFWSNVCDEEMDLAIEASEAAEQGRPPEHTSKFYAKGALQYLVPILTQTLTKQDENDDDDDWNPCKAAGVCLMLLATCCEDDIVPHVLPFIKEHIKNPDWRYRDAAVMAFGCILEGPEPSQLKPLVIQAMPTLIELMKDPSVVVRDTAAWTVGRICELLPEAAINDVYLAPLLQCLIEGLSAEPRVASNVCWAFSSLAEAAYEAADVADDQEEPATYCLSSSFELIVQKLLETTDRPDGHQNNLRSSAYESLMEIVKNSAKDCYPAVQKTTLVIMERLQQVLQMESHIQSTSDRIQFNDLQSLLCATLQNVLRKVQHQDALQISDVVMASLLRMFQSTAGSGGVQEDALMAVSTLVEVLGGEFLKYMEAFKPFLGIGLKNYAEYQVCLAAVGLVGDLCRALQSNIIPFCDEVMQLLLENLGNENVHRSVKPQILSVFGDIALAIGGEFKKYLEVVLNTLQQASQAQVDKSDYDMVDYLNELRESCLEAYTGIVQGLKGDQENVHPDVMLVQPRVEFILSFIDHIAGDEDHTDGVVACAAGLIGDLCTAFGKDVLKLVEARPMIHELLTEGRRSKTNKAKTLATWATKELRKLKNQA
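FRET biosensor Rango (snurportin 1 IBB between N-terminal EYFP and C-terminal Cerulean), 50 nM in PBS/1 mM DTT/0.02% Tween-20/0.1% BSA, preincubated 5 min RT with compound; 0.125 microM importin beta added, 45 min RT, CFP/YFP FRET ratio read.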
An asterisk follows results filed as active; ? = inconclusive; / = not tested or not shown.

1	CN1CCC(N(C)C(=O)c2ccc(Cl)c(S(=O)(=O)N3CCc4ccccc43)c2)CC1
2	Cc1cc2cc(CN(Cc3nnnn3C3CCCCC3)CC3CCCO3)c(=O)[nH]c2cc1C (stereo not given)
3	Oc1ccccc1CNCc1ccccc1
4	Cn1c(=O)[nH]c(=O)c2[nH]c(CO)nc21
5	CC[C@@H]1CCCCc2ccccc2[C@H](C(=O)C[C@@H](O)CC(C)=O)OC1=O
entry no.	1	2	3	4	5
miR-21 reporter	/	-10%	-8%	/	/
Rango release inh	28%	?	-5%	-14%	-1%
GLA inh pH 4.5	/	4	1	/	/
Rango complex inh	5.2%	4.7%	?	-0.7%	-4.8%

6	Cc1ccccc1CSCC(=O)Nc1ccccc1F
7	CCc1ccccc1NC(=O)NCc1ccccn1
8	Cc1cc(C)c2c(=O)[nH]c(SCC(=O)N3CCOCC3)nc2n1
9	CC1(NC(=O)c2cccc(S(=O)(=O)N3CCCc4ccccc43)c2)CCS(=O)(=O)C1 (stereo not given)
10	COc1ccc(/C=C2\SC(=O)N(CCC(=O)Nc3ccccc3)C2=O)cc1OC
entry no.	6	7	8	9	10
miR-21 reporter	-45%	-1%	1%	/	-2%
Rango release inh	15%	8%	1%	12%	3%
GLA inh pH 4.5	/	/	7	/	-1
Rango complex inh	-0.1%	3.1%	-2.8%	6.8%	8.8%

11	CCN(Cc1ccccc1)c1c(C(=O)O)cnc2c1cnn2C
12	Nc1nnc(-c2ccccc2Cl)s1
13	COc1ccc(OCCC(=O)OCC(=O)NC(=O)NC(C)(C)C)cc1
14	O=C(CSc1ncnc2scc(-c3ccc(Cl)cc3)c12)NCc1ccc2c(c1)OCO2
15	CC(=O)Nc1cccc(NC(=O)CSc2ncc(-c3ccc(Cl)cc3)n2Cc2ccco2)c1
entry no.	11	12	13	14	15
miR-21 reporter	2%	-20%	-2%	-3%	?
Rango release inh	0%	4%	8%	11%	14%
GLA inh pH 4.5	7	6	1	-6	-25
Rango complex inh	3.8%	7.1%	-3.3%	1.1%	-0.8%

16	O=C(NC(Cc1ccccc1)C(=O)O)/C(=C\c1ccc(F)cc1)NC(=O)c1ccco1 (stereo not given)
17	Cc1cccc(NC(=O)CNC(=O)c2cccs2)n1
18	CCN(CC(=O)Nc1ccc(NC(C)=O)cc1)C(=O)/C=C/c1ccc(S(=O)(=O)N2CCCCCC2)cc1
19	O=C(NCCO)C(=O)NCC1OCCCN1S(=O)(=O)c1cc(F)ccc1F (stereo not given)
20	Nc1nc2nonc2nc1N
entry no.	16	17	18	19	20
miR-21 reporter	0%	/	-8%	3%	7%
Rango release inh	?	28%	6%	15%	-13%
GLA inh pH 4.5	/	/	/	/	-2
Rango complex inh	?	4.2%	-2.9%	-0.1%	-2.3%

21	O=c1/c(=C\c2ccc3c(c2)OCO3)sc2n1CCCN=2
22	O=C(Nc1ccccc1N1CCCCC1)c1ccc(-c2ccc(Cl)cc2)o1
23	CCN(CC)C(=O)CSc1nc2ccccc2c(=O)n1CCC(=O)NCCc1ccc(OC)c(OC)c1
24	Cc1cc(C)cc(OC(=O)C23CCC(C)(C(=O)O2)C3(C)C)c1 (stereo not given)
25	COc1cc(C2C(C#N)=C(N)Oc3cc(C)n(CC4CCCO4)c(=O)c32)cc2c1OCO2 (stereo not given)
entry no.	21	22	23	24	25
miR-21 reporter	-45%	?	0%	-1%	0%
Rango release inh	9%	14%	3%	-10%	16%
GLA inh pH 4.5	4	0	0	-4	-6
Rango complex inh	2.6%	0.3%	0.3%	0.8%	0.9%

26	COc1ccc(-c2nnc(SCC(=O)Nc3sc4c(c3C#N)CCC4)n2CC2CCCO2)cc1 (stereo not given)
27	O=[N+]([O-])c1ccc(CN2CCOCCOCCN(Cc3ccc([N+](=O)[O-])cc3)CCOCC2)cc1
28	O=C(Cc1ccc(S(=O)(=O)N2CCOCC2)s1)NNC(=O)c1ccccc1Cl
29	CC(OC(=O)Cc1n[nH]c(=O)c2ccccc12)C(=O)Nc1cc(Cl)cc(Cl)c1 (stereo not given)
30	O=C(NC(=S)NCc1ccccc1)c1ccccc1Br
entry no.	26	27	28	29	30
miR-21 reporter	-12%	10%	/	/	-3%
Rango release inh	-13%	-10%	8%	1%	2%
GLA inh pH 4.5	3	-13	/	/	/
Rango complex inh	4.5%	2.0%	2.5%	2.5%	-0.4%

31	COC(C(=O)NC1CCCCCCC1)c1ccccc1 (stereo not given)
32	CSC(=NC#N)N1CCN(c2ccccn2)CC1
33	CCCCNC(=O)N1CCOCCOCCN(C(=O)NCCCC)CCOCC1
34	O=C(CC1Oc2ccccc2NC1=O)NCCc1ccccc1 (stereo not given)
35	CC(=O)NC12CC3CC(C1)CC(C(=O)NCc1ccc(C)cc1)(C3)C2
entry no.	31	32	33	34	35
miR-21 reporter	-6%	-15%	-3%	-1%	1%
Rango release inh	-12%	26%	32%	-1%	1%
GLA inh pH 4.5	-29	-8	-8	-12	/
Rango complex inh	1.6%	-4.1%	-0.3%	1.8%	?

36	Cn1cccc1C(=O)OCC(=O)c1cc2ccccc2o1
37	Cc1cc(C)cc(-n2c(C)cc(C(=S)N3CCOCC3)c2C)c1
38	CCN1C(=O)C(=O)c2cc(C)ccc21
39	Cc1cc(C(=O)N2CCCCCC2)cs1
40	CN(C)Cc1cccc(-c2ccccc2)c1O
entry no.	36	37	38	39	40
miR-21 reporter	-44%	-2%	/	-10%	/
Rango release inh	-1%	25%	-29%	5%	8%
GLA inh pH 4.5	5	6	/	0	/
Rango complex inh	1.7%	0.5%	0.7%	0.2%	7.0%

41	Cc1nc2sc(C(=O)OC(C)C)c(N)c2c(C)c1C
42	Cc1ccc(C2=N/C(=C\N(C)C)C(=O)O2)cc1
43	Cc1nc(NC(=O)COC(=O)CNC(=O)c2ccco2)c(Cl)cc1Cl
44	COc1ccc(NC(=O)C2CC2)cc1OC1CCCC1
45	Cc1ccc(S(=O)(=O)N2CCOC2CNC(=O)C(=O)NCc2ccco2)cc1 (stereo not given)
entry no.	41	42	43	44	45
miR-21 reporter	-27%	-52%	/	-3%	1%
Rango release inh	0%	24%	-5%	12%	16%
GLA inh pH 4.5	15	-4	/	/	-2
Rango complex inh	3.5%	0.1%	-0.4%	-3.4%	0.3%

46	O=C(c1cccs1)N1CCN(C/C=C/c2ccccc2)CC1
47	Fc1ccccc1OCCSc1nnnn1-c1ccccc1
48	O=C(CCc1nc2ccccc2c(=O)[nH]1)OCc1cccc(C(F)(F)F)c1
49	CC1CC(C)CN(C(=O)C(C)N(C)CC(=O)Nc2ccc(Cl)cc2)C1 (stereo not given)
50	O=C(CCC1N=C2c3ccccc3N=C(SCc3ccccc3Cl)N2C1=O)NCc1ccco1 (stereo not given)
entry no.	46	47	48	49	50
miR-21 reporter	-15%	-52%	0%	24%	-15%
Rango release inh	10%	16%	2%	-8%	-6%
GLA inh pH 4.5	2	-10	8	-1	1
Rango complex inh	3.9%	0.1%	-1.3%	-2.5%	1.9%

51	C(=NN=C1c2ccccc2-c2ccccc21)c1c[nH]c2ccccc12
52	CCOC(=O)N1CCC(N2C(=O)c3ccccc3C2Nc2ccccc2)CC1 (stereo not given)
53	CN(Cc1cccnc1)C(=O)Cc1ccc(NS(=O)(=O)c2cccc(C(F)(F)F)c2)cc1
54	Cc1cccc(N2CCN(C(c3ccncc3)c3nnnn3C(C)(C)C)CC2)c1C (stereo not given)
55	O=C(CSc1ncccn1)N/N=C/c1ccccc1[N+](=O)[O-]
entry no.	51	52	53	54	55
miR-21 reporter	/	1%	12%	1%	-15%
Rango release inh	17%	6%	27%	-2%	10%
GLA inh pH 4.5	/	-3	/	-6	3
Rango complex inh	-1.3%	-0.1%	0.5%	-3.4%	-1.3%

An excerpt of these results, as tab-separated lines.
nr	SMILES	miR-21 reporter	Rango release inh	GLA inh pH 4.5	Rango complex inh
53	CN(Cc1cccnc1)C(=O)Cc1ccc(NS(=O)(=O)c2cccc(C(F)(F)F)c2)cc1	12%	27%	/	0.5%
51	C(=NN=C1c2ccccc2-c2ccccc21)c1c[nH]c2ccccc12	/	17%	/	-1.3%
55	O=C(CSc1ncccn1)N/N=C/c1ccccc1[N+](=O)[O-]	-15%	10%	3	-1.3%
52	CCOC(=O)N1CCC(N2C(=O)c3ccccc3C2Nc2ccccc2)CC1 (stereo not given)	1%	6%	-3	-0.1%
54	Cc1cccc(N2CCN(C(c3ccncc3)c3nnnn3C(C)(C)C)CC2)c1C (stereo not given)	1%	-2%	-6	-3.4%

More structures
56	COc1ccccc1-c1cn(S(=O)(=O)c2ccc(C)cc2)nc1N
57	CCCn1nc(C(=O)OCC(=O)Nc2ccc(C(N)=O)cc2)c2ccccc2c1=O
58	CCC(=O)Nc1nonc1-c1nc2ccccc2n1Cc1ccccc1
59	O=C(CC1C(=O)NCCN1Cc1ccc(F)cc1Cl)NCc1ccon1 (stereo not given)
60	CCOC(=O)N1CCN(C(=O)c2cc3c(=O)[nH]c4ccccc4c3s2)CC1
entry no.	56	57	58	59	60
miR-21 reporter	18%	/	-16%	-3%	-13%
Rango release inh	31%	1%	0%	1%	5%
GLA inh pH 4.5	-7	/	-7	/	-7
Rango complex inh	-1.2%	-3.7%	-2.5%	?	3.5%

61	COc1ccc(-n2cnnc2SCC(=O)Nc2ccccc2F)cc1
62	CC(C)N(Cc1ccccc1)C(=S)NCc1ccccc1
63	COc1cccc(-c2c(-c3cc(OC)cc(OC)c3)n(C)c3ccc(-c4cnc(N5CCOCC5)nc4)cc23)c1
64	CN(C)c1cccc2c1c(NC(=O)Nc1ccc(Cl)cc1Cl)nn2C
65	C=C1C(=O)O[C@H]2[C@H]1[C@H](OC(=O)/C(C)=C\C)C[C@]1(CO1)[C@@H]1[C@H](OC(C)=O)C=C(C)[C@]21O
entry no.	61	62	63	64	65
miR-21 reporter	-3%	-2%	/	3%	/
Rango release inh	-10%	-8%	-7%	-17%	1%
GLA inh pH 4.5	/	-26	/	-5	/
Rango complex inh	-3.9%	?	0.2%	-1.7%	-0.5%

66	CN1CCN(/C=N/c2c(C#N)cnn2C)CC1
67	Cc1cc(C)c2c(c1)OC(=O)CC2c1ccccc1C (stereo not given)
68	CC(=O)c1sc(=S)n(-c2ccc(Cl)cc2)c1C
69	O=C(O)Cc1ccc(NC(=S)NCc2ccco2)cc1
70	CC(C)CCC(O)(CCC(C)C)C(=O)NN1CCCCC1
entry no.	66	67	68	69	70
miR-21 reporter	-7%	/	-9%	-1%	3%
Rango release inh	-3%	-17%	-18%	-8%	-4%
GLA inh pH 4.5	0	-4	-12	9	-16
Rango complex inh	1.7%	-3.2%	-0.7%	-1.1%	?

Limited to Rango complex inh and miR-21 reporter, for some of the entries so far:
| cpd | SMILES | Rango complex inh | miR-21 reporter |
| --- | --- | --- | --- |
| 40 | CN(C)Cc1cccc(-c2ccccc2)c1O | 7.0% | / |
| 58 | CCC(=O)Nc1nonc1-c1nc2ccccc2n1Cc1ccccc1 | -2.5% | -16% |
| 5 | CC[C@@H]1CCCCc2ccccc2[C@H](C(=O)C[C@@H](O)CC(C)=O)OC1=O | -4.8% | / |
| 64 | CN(C)c1cccc2c1c(NC(=O)Nc1ccc(Cl)cc1Cl)nn2C | -1.7% | 3% |
| 1 | CN1CCC(N(C)C(=O)c2ccc(Cl)c(S(=O)(=O)N3CCc4ccccc43)c2)CC1 | 5.2% | / |
| 52 | CCOC(=O)N1CCC(N2C(=O)c3ccccc3C2Nc2ccccc2)CC1 (stereo not given) | -0.1% | 1% |
| 43 | Cc1nc(NC(=O)COC(=O)CNC(=O)c2ccco2)c(Cl)cc1Cl | -0.4% | / |

Going on with the list.
71	Cc1cccc(C(=O)N2CCC(=O)N(C(COCc3cccc(C(F)(F)F)c3)Cc3ccccc3)CC2)c1 (stereo not given)
72	CN(CCc1ccccn1)S(=O)(=O)c1ccc2c3c(cccc13)C(=O)N2
73	COC(=O)Nc1ccc(S(=O)(=O)N2CCC(C)CC2)cc1
74	CCn1c(/N=C/c2c[nH]c3ccccc23)nc2ccccc21
75	CN(C(=O)COC(=O)CNC(=O)c1cccs1)c1c(N)n(Cc2ccccc2)c(=O)[nH]c1=O
entry no.	71	72	73	74	75
miR-21 reporter	3%	-19%	0%	3%	/
Rango release inh	-10%	?	0%	-2%	-21%
GLA inh pH 4.5	?	4	5	-3	/
Rango complex inh	2.3%	?	-5.5%	-4.2%	-1.2%

An excerpt; rates above refer to the full screens.
